# VACV Venus inh – vaccinia inhibition (Venus reporter); Vaccinia virus Venus reporter expression, fluorescence; Potency, µM (top dose mostly 36.5 µM), without a hit: at the highest dose activity change, negative = inhibition, hits mostly inhibitors; 330,000 compounds, 0.46% hits; active means well fitted inhibition curve with a large enough effect; inconclusive means small, poorly fitted or top-dose-only effect; inactive means no such curve, though single readings can be large or run the other way; tested in A549 cells; also: nearly all actives have a fitted effect of over 30% in size; inactives centre near -10
# Vaccinia mCherry – inhibitors of vaccinia virus infection (mCherry reporter signal) | 310,000 compounds, 0.63% hits | Vaccinia virus mCherry reporter infection, fluorescence; about a quarter of the inactives have no number | Potency, µM (top dose mostly 36.5 µM), inactives show top-dose activity change, negative = inhibition, hits mostly inhibitors; active = well fitted inhibition curve with a large enough effect; inconclusive = small, poorly fitted or top-dose-only effect; inactive = no such curve, though single readings can be large or run the other way; tested in A549 cells; also: nearly all actives have a fitted effect of over 35% in size; inactives centre near -10
# * = called active by the depositor; i = inactive; ? = inconclusive; / = not tested or not shown; & = joins results of further samples; [ ] = dose if it differs, or a comment. % is scaled to controls: 0 for no effect and ±100 for the full control effect; potency is read from the fitted curve at half-maximal effect.
# Every second line gives: VACV Venus inh, Vaccinia mCherry
> Cc1cc(C(=O)CN2C(=O)C(=O)N(CCC3=CCCCC3)C2=O)c(C)n1C
→ -22%, -22%
> O=C(c1coc(=O)c2ccccc12)N1CCN(Cc2ccccc2)CC1
→ -1%, i
> COc1ccc(C(=O)C2CCCN(C3Cc4ccccc4C3)C2)cc1OC (configuration not stated)
→ 3%, -13%
> O=C(C1CC1c1ccccc1)N1CCN(c2cccc(Cl)c2)CC1 (configuration not stated)
→ 5%, 9%
> Cc1cnc(C(=O)Nc2ccc(N3CCN(C(=O)OC(C)(C)C)CC3)cc2)cn1
→ ?, ?
> COC(=O)/C=C/c1oc2ccccc2c1C
→ -10%, i
> NC(=O)c1ccc(NC(=O)c2ccc3c(c2)CCN3S(=O)(=O)c2ccccc2)cc1
→ -9%, -6%
> Cc1ccc2c(CNCc3ccc(C)o3)c(C(=O)O)n(Cc3ccc(F)cc3)c2c1
→ -10%, -9%
> CCOC(=O)[C@@H]1[C@H]2COc3ccccc3[C@@H]2N2C(=O)N(c3ccc(Br)cc3)C(=O)[C@@]12C
→ -8%, i
> CCN(CC(=O)NCc1ccc(F)cc1)C(=O)C1CC1C (configuration not stated)
→ -3%, -12%
> COC(=O)c1sc(-c2ccc(Cl)cc2)cc1NC(=O)c1ccccc1C(=O)O
→ -11%[7.34 µM], -7%[7.34 µM]
> Cc1cccc(N2CCN(CC(=O)Nc3ccccc3[N+](=O)[O-])CC2)c1C
→ -18%, -9%
> O=C(O)c1ccc(NC(=S)NCc2ccccc2)cc1
→ -9%, -15%
> N#C/C(=C\c1cn(CC(=O)N2CCCC2)c2ccccc12)C(=O)NCc1ccc2c(c1)OCO2
→ -18%, -22%
> Cc1ccc(NS(=O)(=O)c2ccc(NC(=O)C3CC3)cc2)cc1C
→ -29%, -17%
> COc1ccc(N2CCN(CC(O)COc3ccc4c(c3)CCC4)CC2)cc1 (configuration not stated)
→ -24%, -7%
> Cc1ccc(N(CC(=O)NC(C)(C)C)C(=O)CNC(=O)c2cccs2)cc1
→ 2%, -4%
> CC(Oc1ccc(-c2nnco2)cc1)C(=O)N1CCOCC1 (configuration not stated)
→ -16%, -1%
> O=C(COC(=O)C1CC(O)CN1S(=O)(=O)c1ccc(Cl)cc1)c1ccccc1 (configuration not stated)
→ -8%, -12%
> CCOC(=O)Cn1c(=N)n(CCOc2cccc(C)c2)c2ccccc21
→ -18%, i
> CN=C1S/C(=C\c2ccc(N3CCOCC3)cc2C)C(=O)N1C
→ 0%, -14%
> O=C(CN1C(=O)COc2ccc(Cl)cc21)N1CCCCC1
→ -15%, -12%
> CCOc1ccc(S(=O)(=O)NNS(=O)(=O)c2ccc(C)cc2C)cc1
→ 3%, 5%
> CCc1ccc(S(=O)(=O)NCc2nc3cccnc3n2Cc2ccccc2Cl)cc1
→ -12%, -18%
> COC(=O)c1c(NC(=O)c2ccco2)sc2c1CC(C)(C)NC2(C)C
→ -18%, -4%
> Cc1ccccc1OCC(=O)OCc1cc(=O)n2ccsc2n1
→ 1%, -5%
> COc1ccc(C(=O)NCCC2=CCCCC2)cc1OC1CCN(C(C)C)CC1
→ -20%, i
> O=C(CSc1nnc(COc2cccc3cccnc23)o1)N1CCN(C(=O)c2ccco2)CC1
→ -11%, /
> C=C(C)c1cccc(C(C)(C)NC(=O)NNC(=O)c2ccccc2O)c1
→ -19%, -19%
> C=CC(=O)Nc1cccc(Nc2nc(N[C@H]3CC[C@H](N(C)C)CC3)nc3c2ncn3C(C)C)c1
→ 1µM*, ?

# More results follow.
# Every second line gives: VACV Venus inh, Vaccinia mCherry
> O=C1CC(c2cccc(F)c2)C2=C(CCCC2=O)N1 (configuration not stated)
→ -24%, /
> O=C(COC(=O)c1c(F)cccc1F)NC(=O)NCc1ccccc1
→ -1%, i
> COC(=O)c1cc(C(=O)CC(C)C)c[nH]1
→ -10%, 0%
> O=C(CSc1nnc2ccc(-c3ccccc3)nn12)NCC1CCCO1 (configuration not stated)
→ -2%, -6%
> COc1cccc(NC(=O)C2CCCO2)c1 (configuration not stated)
→ 7%, -9%
> O=C(NCc1ccccc1)C(c1ccccc1)n1c(=O)c(-c2cc3ccccc3[nH]2)nc2ccccc21 (configuration not stated)
→ -29%, -23%
> CCOc1cccc(CC(=O)N2CCc3c([nH]c4ccccc34)C2c2ccc(Cl)cc2)c1OCC (configuration not stated)
→ -14%, i
> CCOC(=O)Cc1[nH]nc2c1C(C1C=CCCC1)C(C#N)=C(N)O2 (configuration not stated)
→ ?, /
> COc1ccc(OCCSc2nnc3sc4ccccc4n23)cc1
→ -19%, -13%
> CC1Cc2c([nH]c3ccccc23)C(=O)N1 (configuration not stated)
→ -10%, -17%
> COc1ccc(CCNS(=O)(=O)CCNC(=O)c2ccc3c(c2)OCO3)cc1
→ -11%, -11%
> COc1ccc(CNC(=O)C[C@H]2C[C@H](C(=O)N3CCOCC3)[C@@]3(CCC4CCCC4)c4[nH]c5cc(-c6ccco6)ccc5c4CCN3C2=O)cc1OC
→ ?, ?
> O=C(COC(=O)c1ccc2c(=O)n3c(nc2c1)CCC3)NC1CCS(=O)(=O)C1 (configuration not stated)
→ -6%, 0%
> Cc1ccc(S(=O)(=O)NCCc2cc3ccc(C)c(C)c3[nH]c2=O)cc1
→ -5%, -13%
> O=C(Nc1nccs1)c1ccc(S(=O)(=O)N2CCCCC2)cc1
→ -26%, -9%
> Cc1ccc(CNC(=O)c2cc3c(s2)CN(Cc2ccccc2)C3)cc1
→ -16%, ?
> CC1CCN(CCc2nc3ccccc3[nH]2)CC1
→ 10%, i
> Cc1oc(-c2cccc3ccccc23)nc1CN1CCN(c2ncnc3ccccc23)CC1
→ -29%, -36%
> Cc1ccc(S(=O)(=O)c2nnn(CC(=O)Nc3ccccc3C)c2N)cc1C
→ -2%, -16%
> Cc1ccccc1-n1c(SCC(=O)N2CCN(c3ccccn3)CC2)nnc1N1CCOCC1
→ -6%, i
> O=C(c1cn(-c2ccccc2)nc1-c1ccncc1)N1CCCCC1
→ -3%, -9%
> CC(C)OCCCn1c(SC(C)C(=O)NC2CC2)nc2ccccc2c1=O (configuration not stated)
→ -11%, i
> CCOC(=O)C1=CN(Cc2ccco2)S(=O)(=O)N(C)C1c1ccc(F)c(Cl)c1 (configuration not stated)
→ ?, -22%
> Cc1nonc1C1CCCN1Cc1cn[nH]c1-c1ccc2c(c1)OCO2 (configuration not stated)
→ -1%, i
> Cc1cccc(NC(=O)CSc2nnnn2C2CCCC2)c1
→ -7%, -5%
> O=C(NC(=S)N1CCCc2ccccc21)c1ccco1
→ -13%, -24%
> O=C(CN1C(=O)c2cccc3cccc1c23)Nc1ccccc1Br
→ -17%, i
> Cc1ccc(S(=O)(=O)NN2C(=O)c3ccccc3NC2c2ccco2)cc1 (configuration not stated)
→ -14%, -6%
> O=C(CSc1n[nH]c(-c2ccccc2Cl)n1)N1CCN(c2ccccc2)CC1
→ -3%, -7%
> COc1ccc(CNC(=O)CN(Cc2ccccc2)C(=O)CCC(=O)Nc2nccs2)cc1
→ -11%, -23%

# Continued.
# Every second line gives: VACV Venus inh, Vaccinia mCherry
> COc1ccc(NC(=S)N(CCCN2CCC(C)CC2)Cc2cccs2)cc1
→ -14%, -20%
> Cc1cccc(NC(=O)CSc2nnc([C@H](C)NC(=O)OC(C)(C)C)o2)c1C
→ -6%, -10%
> CN(c1ccccc1)S(=O)(=O)c1cccc(C(=O)OCC(=O)Nc2ccc(C(N)=O)cc2)c1
→ -7%, 0%
> COc1ccc(Cl)cc1NC(=O)CSC1=Nc2ccccc2C2=NC(CCC(=O)NCc3ccc(F)cc3)C(=O)N12 (configuration not stated)
→ -20%, -17%
> COc1ccc(OC)c(CN2CCCC(c3nc(C)ncc3-c3ccc(F)cc3)C2)c1 (configuration not stated)
→ -8%, -11%
> O=C1O[C@@H](c2ccccc2)C[C@@H](O)C(=O)CCCCc2ccccc21
→ -1%, -2%
> CCOC(=O)c1ccc(NC(=O)C2(N3C(=O)c4ccccc4C3=O)CCCC2)cc1
→ -5%, -14%
> CC(C)CC(NC(=O)OC(C)(C)C)c1cn([C@@H](CCC(=O)OC(C)(C)C)C(=O)N2CCN(C(=O)OC(C)(C)C)CC2)nn1 (some centres not stated)
→ -24%, i
> O=C(c1ccccc1)N1N=C(c2ccccc2)CC1c1ccccc1 (configuration not stated)
→ -11%, -16%
> CN(C)c1ccc(C(CNC(=O)COc2ccccc2)N2CCOCC2)cc1 (configuration not stated)
→ -3%, 8%
> CNC(=O)C(=O)NCCc1ccc(Cl)cc1
→ -15%, /
> COc1ccc(Cn2ccnc2SCC(=O)NCc2ccco2)cc1
→ -12%, -2%
> O=C(c1ccc2ncsc2c1)N1CCN(c2ccc(O)cc2)CC1
→ -20%, -9%[1.46 µM]
> Cc1cc2c(c(C)c1CCO)C(=O)[C@H](C)C2
→ 2%, -6%
> CCNC(=O)CC1C(=O)N(c2ccccc2)C(=O)N1CCc1ccc(OC)c(OC)c1 (configuration not stated)
→ -5%, i
> c1nc(N2CCCCC2)c2[nH]cnc2n1
→ -13%, -2%
> CC1CCN(c2nc3ccc(C(=O)NCc4ccccc4)cc3s2)CC1
→ -2%, -9%
> COc1ccc(C2NCc3ccc4c(c3-n3cccc32)OCO4)cc1O (configuration not stated)
→ ?, /
> O=C(NCc1ccc(F)cc1)c1[nH]c(C(F)(F)F)nc1-c1ccccc1
→ -3%, 15%
> O=C(NCc1ccco1)/C(=C\c1ccco1)NC(=O)c1cccs1
→ 7%, 1%
> CC(C)CCN1C(=O)c2ccc(C(=O)OCC(=O)N(C)C3CCS(=O)(=O)C3)cc2C1=O (configuration not stated)
→ -3%, -21%
> COc1coc(/C=C/C(=O)O)cc1=O
→ -15%, -2%
> C[C@@H]1CN([C@H](C)CO)S(=O)(=O)c2ccc(Br)cc2O[C@H]1CN(C)C(=O)Nc1ccccc1
→ -25%, -3%
> Cc1nc2scc(C)n2c(=O)c1S(=O)(=O)Nc1ccc(N2CCOCC2)cc1
→ -18%&1%, ?
> CCN(c1ccccc1)S(=O)(=O)c1ccc(C(=O)Nc2nnc(CSC)o2)cc1
→ ?, ?
> CCc1nnc(NC(=O)CSc2n[nH]c(-c3ccccc3O)n2)s1
→ -4%, i
> Cc1ccc(C)c(-c2[nH]ncc2CN2CCCC(CO)(Cc3ccccc3C)C2)c1 (configuration not stated)
→ 1%, -18%
> CC(C)N(Cc1ccccc1)C(=O)/C=C/c1ccccc1[N+](=O)[O-]
→ -15%, ?
> CC(C)n1c(O)c(/C=C2\C=Nc3ccccc32)sc1=Nc1ccccc1
→ 8%, 1%
> O=C(c1ccc(Cl)cc1)c1nnc(-c2ccncc2)o1
→ -3%, /

# Whole records as entered above. Order of screens: VACV Venus inh | Vaccinia mCherry
# `O=C(CSc1n[nH]c(-c2ccccc2Cl)n1)N1CCN(c2ccccc2)CC1` in the list: -3% | -7%
# `CCc1nnc(NC(=O)CSc2n[nH]c(-c3ccccc3O)n2)s1` in the list: -4% | i
# `Cc1ccc(NS(=O)(=O)c2ccc(NC(=O)C3CC3)cc2)cc1C` in the list: -29% | -17%

# Compounds from the list above that contain bromine:
# Every second line gives: VACV Venus inh, Vaccinia mCherry
> CCOC(=O)[C@@H]1[C@H]2COc3ccccc3[C@@H]2N2C(=O)N(c3ccc(Br)cc3)C(=O)[C@@]12C
→ -8%, i
> O=C(CN1C(=O)c2cccc3cccc1c23)Nc1ccccc1Br
→ -17%, i
> C[C@@H]1CN([C@H](C)CO)S(=O)(=O)c2ccc(Br)cc2O[C@H]1CN(C)C(=O)Nc1ccccc1
→ -25%, -3%

# More compounds:
# Every second line gives: VACV Venus inh, Vaccinia mCherry
> Cc1cccc(C(=O)NCCc2nnc(SCC(=O)Nc3cccc(C(=O)O)c3)n2C)c1
→ -14%, -9%
> O=C(N/N=C/c1cn(Cc2ccccc2)c2ccccc12)c1ccncc1
→ -15%, -20%
> COc1ccc(C(=O)NCC(=O)OCC(=O)NC2CCCCCC2)cc1
→ -6%, i
> O=C(Cn1c(NCCO)nc2ccccc21)Nc1cccc(S(=O)(=O)N2CCCC2)c1
→ -12%, -11%
> O=C(O)CCc1ccc(-c2ccccc2)n1CC1CCCO1 (configuration not stated)
→ ?, /
> O=S1(=O)N[C@@H](Cc2ccccc2)COc2cc(N3CCC[C@@H]3CO)ccc21
→ -9%, -12%
> O=C(/C=C/c1cc([N+](=O)[O-])ccc1OC(F)F)Nc1cccc(OC(F)F)c1
→ -22%, -3%
> COc1cccc(-c2nc(CS(=O)(=O)CC(=O)Nc3ccc(F)cc3F)c(C)o2)c1
→ -7%, -15%
> S=c1[nH]nc(COc2ccccc2)n1-c1ccc(Cl)cc1
→ -19%, i
> O=C(Nc1ccc(F)cc1)c1cc2cc(Cl)ccc2[nH]1
→ -11%, i
> O=C1OC[C@@H]2CCCN2C(=O)[C@H](CC(=O)N(CCO)Cc2ccccc2)C/C=C\CC[C@H]1Cc1ccc(F)cc1
→ -26%, -20%
> CN(C1=NS(=O)(=O)N=C(N(C)c2ccccc2)O1)c1ccccc1
→ -25%, -18%
> CCCCc1ccc(C2C3=C(CC(C)(C)CC3=O)NC3=C2C(=O)c2ccccc23)cc1 (configuration not stated)
→ ?, -30%
> CCOc1ccc(N2CC(c3nc4ccccc4n3Cc3cccc(C)c3)CC2=O)cc1 (configuration not stated)
→ -15%, -15%
> CN(C[C@@H](CC1CCCCC1)N(C[C@H](Cc1ccccc1)N(CCc1ccccc1)N=O)N=O)N=O
→ -15%, -7%
> COc1ccc(-c2noc(CNC(=O)c3ccco3)n2)cc1
→ -12%, -6%
> O=C(CNC(=O)c1ccccc1)NCC(=O)OCc1ccccc1Cl
→ -6%, -12%
> O=C(COc1cccc(-n2cnnn2)c1)Nc1ccc([N+](=O)[O-])cc1
→ 2%, -11%

# Assay outcomes deposited in PubChem by National Center for Advancing Translational Sciences (NCATS).
